Compound activity: PubChem, several laboratories
UUG fidelity: yeast start codon fidelity modulation | S. cerevisiae UUG-firefly luciferase reporter, luminescence/redox ratio | activity score, % at 18.7 µM | actives 0.13% (n = 350,000);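 active means replicate mean at a twofold rise or more, about +100% in these data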;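 further: firefly luciferase made from a UUG start codon reports start codon fidelity; reporter light over untreated wells divided by growth signal over untreated wells; some hits fall short of that in this replicate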
CSC inhib: blocks cancer stem cells; actives 1.1% (n = 300,000); AID 2717; cancer stem cell-like cells viability, luminescence; inhibition, % at 7.5 µM;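 active means mean at 75% or more and at least half the replicates too; inconclusive means mean and replicates disagree; tested in HMLE shEcad cells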;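 further: 0% = median of negative and 100% = median of positive control wells; the first replicate is given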
PABP FP inh: blocks human PABP binding to poly(A) RNA; AID 2014; inhibition, % at 35 µM; fluorescence polarization; actives 1% (n = 290,000); P11940;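 active means 50% or more with normal probe brightness, or confirmed in later tests; inconclusive means above 50% with abnormal brightness, or retests that disagree; inactive means below 50% or failed in later tests; about a fifth of its hits are not listed in these tables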;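 further: calls also rest on retests at 20 µM and on dose response follow-up; controls were probe without protein and protein plus probe with vehicle; some compounds called inactive have numbers as strong as hits; many hits fall short of the cut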
Target sequence (P11940 whole entry, looked up): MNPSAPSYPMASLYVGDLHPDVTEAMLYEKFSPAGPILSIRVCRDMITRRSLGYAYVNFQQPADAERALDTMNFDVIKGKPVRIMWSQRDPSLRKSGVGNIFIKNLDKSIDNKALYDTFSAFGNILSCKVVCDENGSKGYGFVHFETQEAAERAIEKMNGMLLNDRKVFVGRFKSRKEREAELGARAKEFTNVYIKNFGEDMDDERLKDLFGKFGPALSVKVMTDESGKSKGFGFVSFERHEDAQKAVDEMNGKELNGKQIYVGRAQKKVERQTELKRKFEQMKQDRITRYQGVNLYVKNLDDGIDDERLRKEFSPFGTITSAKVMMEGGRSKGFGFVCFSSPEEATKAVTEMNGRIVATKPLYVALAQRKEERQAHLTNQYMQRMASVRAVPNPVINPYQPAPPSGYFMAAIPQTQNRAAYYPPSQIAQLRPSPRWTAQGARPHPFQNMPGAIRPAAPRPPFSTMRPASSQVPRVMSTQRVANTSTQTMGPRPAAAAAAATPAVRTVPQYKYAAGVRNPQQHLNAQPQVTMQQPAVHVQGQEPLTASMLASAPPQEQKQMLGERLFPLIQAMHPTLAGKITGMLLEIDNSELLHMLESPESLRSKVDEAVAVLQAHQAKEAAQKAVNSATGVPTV
Rce1 inh: inhibitors of yeast Ras-converting enzyme; Q03530; yeast membranes, quenched prenylated peptide cleavage fluorescence; calls only; actives 0.27% (n = 290,000);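 active means fall in fluorescence gain of 50% or more versus controls, with final raw signal at or below 3038400; inconclusive means same 50% fall but final raw signal above 3038400; inactive means fall in fluorescence gain under 50%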;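 further: plate controls were neutral control wells for no effect and wells lacking membranes for full effect; tested at 10 µM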
MT1-MMP act inh: inhibitors of human MT1-MMP activation | actives 0.061% (n = 360,000) | AID 651647 | GFP/RFP ratio change, % at 20 µM | HT1080 RFP-PRO-GFP cells, GFP/RFP ratio fluorescence, overnight; percent of plate control window, DMSO zero;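 active means GFP/RFP ratio change of at least 30% with cell ATP level not reduced by more than half and red fluorescence within 50% of control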; further: strong numbers were not always called active
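Assay system: HT1080 RFP-PRO-GFP cells. Benchmarks: DMSO vehicle wells and RFP-L50D-GFP reporter cell wells. Times: overnight cell settling, then overnight compound exposure, 37 °C, 5% CO2. Compound: 20 µM single dose, 1% DMSO. Read-out basis: GFP/RFP fluorescence ratio.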
HIV Env fusion: inhibitors of HIV Env-mediated cell fusion; AID 651610; actives 1.1% (n = 360,000); inhibition, % at 12.3 µM; HeLa-JRFL Env/CEM21 cell fusion, luciferase;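 active means mean replicate inhibition score of at least 50 and every replicate individually at or above 50; inconclusive means only one of the two criteria met; inactive means mean below 50 and not all replicates reaching 50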;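 further: 0% = plate neutral controls and 100% = maraviroc near 300 nM; one replicate is shown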
eIF4H inh: inhibitors of RNA binding by human eIF4H; Q15056; eIF4H fluorescence polarization binding assay; inhibition, % at 35 µM; actives 0.94% (n = 290,000);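 active means 50% or more with normal probe brightness, or confirmed in later tests; inconclusive means above 50% with abnormal brightness, or retests that disagree; inactive means below 50% or failed in later tests; about a fifth of its hits are not listed in these tables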;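 further: calls also rest on retests at 20 µM and on dose response follow-up; 0% = protein and probe with vehicle and 100% = probe without protein; strong numbers were not always called active; many hits fall short of the cut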
MT1-MMP act inh RFP: further read-out of MT1-MMP act inh, marked with its call; RFP signal change, %; measured here: RFP expression control read;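 0 = vehicle wells; hits needed this value within 50% of zero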
* marks the source's active call; other numbers are inactive results; i = inactive; ? = inconclusive; . = no result given; & = joins results of further samples.

SMILES | UUG fidelity | CSC inhib | PABP FP inh | Rce1 inh | MT1-MMP act inh | MT1-MMP act inh RFP | HIV Env fusion | eIF4H inh
Cc1cc(C)nc(SCCCNCc2ccc(Br)cc2)n1 | -6 | 3 | -4 | i | -2 | 4 | 18 | -6
Cc1cc(C)cc(OCc2nnc(SCC(=O)c3ccccc3)o2)c1 | -9 | 21 | -2 | i | 2 | -1 | 12 | -4
CC(C)(C(=O)Nc1nccs1)c1ccccc1 | -8 | -2 | 3 | i | 0 | -1 | -6 | -9
Cc1nc(COC(=O)c2ccc(CO)cc2)cs1 | -21 | 2 | 3 | . | 1 | -8 | 5 | -12
NC(=O)c1ccc(Nc2nc(C(N)c3ccccc3Cl)cs2)cc1 (stereo not drawn) | -8 | . | . | . | 0 | -2 | 1 | .
CC(NC(=O)CSc1ncccc1C(=O)O)C1CC2CCC1C2 (stereo not drawn) | -6 | -2 | 10 | i | 8 | 4 | -6 | -5
O=c1[nH]c2c(cnn2-c2ccc(Cl)cc2)c(=O)n1-c1cccc(Cl)c1 | . | -1 | 0 | i | 6 | -2 | 62* | -12
CCOC(=O)c1cnn(-c2nc(OC)cc(OC)n2)c1C(F)(F)F | -3 | . | 6 | i | -5 | -5 | 1 | -8
N=C1C(c2ccccc2)=C(O)CN1c1ccc2c(c1)OCO2 | 1 | -17 | 4 | i | 2 | 5 | . | 2
N#C/C(=C/c1cccc(C(F)(F)F)c1)c1nc(CCN2C(=O)c3ccccc3C2=O)cs1 | -27 | 8 | -16 | i | 2 | 2 | -9 | -8
CN(C)/C=C(/C(=O)c1ccc(Cl)c(Cl)c1)c1nnnn1-c1ccccc1 | -11 | -4 | 8 | i | 0 | 2 | 15 | 0
CCCn1c(N)c(C(=O)CN(C)CC(=O)Nc2ccccc2CC)c(=O)[nH]c1=O | -5 | 0 | . | . | -6 | -1 | . | .
O=C(OCc1ccco1)c1cccnc1 | . | -6 | 8 | . | -1 | 6 | 0 | 33
COc1ccc(-c2noc(CN(C)C(=O)c3ccc4c(c3)OCO4)n2)cc1 | -2 | . | 6 | i | 0 | -3 | 13 | -6
CCCc1cc(=O)c2c(O)ccc(OC)c2o1 | 3 | -8 | 13 | i | -5 | -2 | 19 | 5
CCc1cc(OCCCSc2nc(C)cc(=O)[nH]2)ccc1Cl | -12 | 12 | -8 | . | 3 | -11 | 31 | -6
CCCCOCP(=O)(CCCC)COCCCC | -18 | 9 | 0 | i | 0 | 3 | . | 3
O=C(CN1C(=O)c2ccccc2S1(=O)=O)NCCSC1CCCCC1 | -20 | -6 | -2 | i | . | . | . | -4
CN(CC(=O)O/N=C(\N)c1cccc([N+](=O)[O-])c1)S(=O)(=O)c1ccccc1 | -13 | . | -5 | i | 6 | 1 | 14 | -2
COc1ccc(C(=O)ON=C2C=C(C)C(=O)C(C)=C2)cc1 | -5 | 18 | 11 | i | -30 | 9 | 13 | -8
O=C(CCCOc1ccc(Cl)cc1)Nc1ccc(N2CCOCC2)cc1 | . | -6 | -1 | i | -1 | 0 | -123 | -5
COc1ccc(NC(=O)CC(c2ccc(F)cc2)c2ccc(OC(C)C)cc2)cc1 (stereo not drawn) | . | -7 | -9 | i | 2 | -2 | 14 | -16
COCCn1c(N)c(C(=O)OCc2ccccc2)c2nc3ccccc3nc21 | -14 | 2 | 3 | i | 1 | 1 | 33 | -5
O=S(=O)(NCc1ccco1)c1ccc(Cl)nc1 | -9 | 1 | 0 | i | 3 | 1 | 26 | 0
N#CCCn1cc(/C=N/N=C2\NC(=O)C(CC(=O)O)S2)c(-c2ccc(F)cc2)n1 (stereo not drawn) | -4 | -3 | -8 | i | -4 | 2 | -3 | -3
Cc1cc2cc(CCNC(=O)c3cccc([N+](=O)[O-])c3)c(=O)[nH]c2cc1C | . | -2 | 7 | i | 9 | -3 | . | 2
CCS(=O)(=O)N1CCN(c2ccc([N+](=O)[O-])c(NCc3ccccc3)c2)CC1 | 240* | 23 | -7 | i | 0 | -6 | . | -6
COc1cccc(NC(=O)CCN2C(=O)c3cccc([N+](=O)[O-])c3C2=O)c1 | 8 | -4 | 1 | i | 1 | 4 | 8 | 0
CCCCN(C(=O)CSc1ncnc2sccc12)c1c(N)n(Cc2ccccc2)c(=O)[nH]c1=O | -2 | -12 | . | . | -3 | -1 | -4 | .
COc1ccccc1NC(=O)N(CCN1CCOCC1)Cc1cc2cc(C)cc(C)c2[nH]c1=O | . | -8 | 0 | i | -1 | -1 | 10 | 6
NC(=O)COc1c(-c2ccco2)oc2ccccc2c1=O | . | -13 | 1 | i | -3 | -2 | 1 | 20
O=C(CNS(=O)(=O)c1ccc(F)cc1)N1CCCC1 | -20 | 4 | . | i | 2 | 8 | -3 | .
O=C(c1cnn(-c2ccccc2)c1)c1cc(F)ccc1O | -10 | -10 | 3 | i | -6 | -6 | -24 | -9
COc1ccc(Cl)cc1CNC[C@H]1O[C@@H](n2cnc3c(=O)[nH]c(N)nc32)[C@H](O)[C@@H]1O | -18 | . | . | . | 0 | 2 | -9 | .
CCOc1ccc(-c2n[nH]c(C)c2-c2ccccn2)c(O)c1 | . | 12 | 2 | i | 6 | 10 | 9 | -1
C=Cc1ccc(CC2(C)C(=O)Nc3ccc(Cl)cc32)cc1 (stereo not drawn) | -6 | . | . | . | -2 | -2 | -6 | .
COc1ccc(-c2ccc3c(c2)S(=O)(=O)c2cccc(C(=O)N4CCN(C5CCCCC5)CC4)c2C3=O)cc1OC | -5 | . | . | . | -38 | 1 | -1 | .
CN(C)C=NC(=O)c1cc(C(=O)c2ccc(Cl)cc2Cl)c[nH]1 | . | 2 | 34 | i | -5 | -9 | 27 | 7
O=C(O)c1ccc(CSc2ncnc3c2cnn3Cc2ccccc2)cc1 | -6 | . | 0 | i | 1 | -4 | 8 | 3
CN(Cc1ccccc1C#N)S(=O)(=O)c1cccs1 | -13 | -6 | 0 | i | 5 | 6 | 13 | -14
Cc1cc(=O)oc2cc(OCC(=O)NCCCN3CCOCC3)ccc12 | -13 | -9 | -12 | i | 1 | 2 | . | 1
CC(C)[C@H](NC(=O)C1CCN(S(=O)(=O)c2ccc(F)cc2)CC1)C(=O)N1CCCC1 | -7 | 14 | 12 | i | -3 | 4 | 4 | -1
O=C(CC1SC(=NCC2CCCO2)NC1=O)Nc1cc([N+](=O)[O-])ccc1Cl (stereo not drawn) | -9 | -39 | 1 | i | 1 | 3 | 10 | 4
Cc1ccccc1C(OCCN(C(C)C)C(C)C)c1ccccc1 (stereo not drawn) | . | 66 | 6 | i | 1 | 7 | -8 | 13
N[C@@H](Cc1ccc(O)c(I)c1)C(=O)O | . | -1 | 37 | i | . | . | . | 0
CSc1ccc(C(=O)C2CCCN(C(=O)c3ccc4c(c3)no[n+]4[O-])C2)cc1 (stereo not drawn) | -7 | 13 | -5 | i | 3 | -18 | -31 | 1
COc1ccc(S(=O)(=O)N2CCC(C(=O)Nc3cccc(C(C)=O)c3)CC2)cc1 | -3 | -3 | -8 | i | -1 | -1 | . | -6
COc1cc(C(=O)Oc2ccccc2)ccc1OCc1c(C)noc1C | -11 | 6 | 5 | i | 1 | -9 | -23 | 4
CCn1ncc(N(C)N)c(Cl)c1=O | -10 | -13 | -3 | i | 1 | 1 | -37 | -8
COc1ccc(-c2nc(C#N)c(N3CCC(C(N)=O)CC3)o2)cc1OC | -24 | -3 | 2 | ? | -1 | -9 | -33 | 3
CC(=O)N1CCc2cc(S(=O)(=O)CCC(=O)NCc3cccs3)ccc21 | -13 | 4 | -6 | i | 5 | -2 | 1 | 8
Cc1c(C)c2cc(Cl)c(OC(C)C(=O)NCCN3CCOCC3)cc2oc1=O (stereo not drawn) | -8 | -11 | 4 | i | 1 | 4 | -11 | 2
CC(C)(C)NC(=O)c1nn(Cc2ccccc2)c(=O)c2ccccc12 | -7 | -11 | -5 | i | 1 | -2 | 2 | 6
Cc1ccc(C(=O)Oc2ccc(-c3nccc(-c4ccccn4)n3)cc2)cc1 | -18 | -1 | 18 | i | 0 | 3 | . | -8
COc1ccc(C(=O)N(Cc2sccc2C)C2CCS(=O)(=O)C2)cc1 (stereo not drawn) | 11 | -22 | -2 | i | -4 | 3 | -339 | -6
Cc1cccc(NC(=O)CCNC(=O)c2ccccc2)c1 | -19 | 1 | 3 | i | 3 | 1 | -7 | 6
Cc1cc(Nc2c(C#N)c(N)nn2C)ccc1F | -15 | -7 | ? | i | 2 | 4 | 10 | 3
COc1ccccc1CNC(=O)[C@@H](NC(=O)C1CCN(C(=O)[C@@H]2CCCN2)CC1)C(C)C | -18 | 1 | 8 | i | -6 | 1 | . | 6
C[C@@H]1CN([C@H](C)CO)C(=O)Cc2cc(NC(=O)CCC(F)(F)F)ccc2O[C@@H]1CN(C)S(=O)(=O)c1ccccc1 | 0&1 | . | . | . | 1 | 0 | 7 | .
O=C(NCc1ccco1)c1noc2c1CCCC2 | . | -6 | 6 | i | 4 | -1 | . | 1

4 compounds from above, showing only MT1-MMP act inh RFP and MT1-MMP act inh.
Molecule	MT1-MMP act inh RFP	MT1-MMP act inh
CCn1ncc(N(C)N)c(Cl)c1=O	1	1
COc1ccc(-c2nc(C#N)c(N3CCC(C(N)=O)CC3)o2)cc1OC	-9	-1
CC(=O)N1CCc2cc(S(=O)(=O)CCC(=O)NCc3cccs3)ccc21	-2	5
Cc1c(C)c2cc(Cl)c(OC(C)C(=O)NCCN3CCOCC3)cc2oc1=O (stereo not drawn)	4	1

New compounds follow
SMILES | UUG fidelity | CSC inhib | PABP FP inh | Rce1 inh | MT1-MMP act inh | MT1-MMP act inh RFP | HIV Env fusion | eIF4H inh
CCN(C(=O)CSc1nnc(C)n1-c1ccc(C)cc1)c1c(N)n(Cc2ccccc2)c(=O)[nH]c1=O | -2 | . | . | . | -2 | 2 | 6 | .
O=C(NC(=S)Nc1ccc(CN2CCOCC2)cc1)c1ccc(-c2ccc(Br)cc2)o1 | . | -5 | -10 | i | . | . | . | 8
O=C(c1cccc(Oc2c(Cl)cccc2[N+](=O)[O-])c1)N1CCOCC1 | 25 | -4 | 2 | i | 4 | 2 | -3 | -5
COC(=O)CNC(=O)CSc1nc(N)cc(=O)[nH]1 | -20 | -2 | 6 | i | 0 | 1 | -16 | 0
COc1cccc(NC(=S)Nc2cc(C(=O)O)ccc2N2CC3CC(C2)c2cccc(=O)n2C3)c1 (stereo not drawn) | . | 1 | 0 | . | 1 | -2 | 6 | 15
O=C(N/N=C/c1ccco1)C(O)c1ccccc1 (stereo not drawn) | . | . | -8 | i | 3 | 2 | -4 | -7
NC(=O)NC(=O)C(OC(=O)CCNS(=O)(=O)c1ccccc1)c1ccccc1 (stereo not drawn) | . | -5 | . | i | -9 | 4 | . | .
Cc1cc(C)nc(SCc2ccc(Cl)cc2)n1 | -6 | -4 | -5 | i | -5 | -2 | -9 | -7
COC(=O)C1C(=O)c2c(C)noc2CC1(C)C (stereo not drawn) | -3 | -12 | -2 | i | -1 | 0 | 11 | -8
Cc1ccsc1/C=c1\sc2ncnn2c1=O | . | 2 | 13 | i | 6 | 4 | . | -7
O=C(COC(=O)/C=C/c1ccc(Cl)c(Cl)c1)NC1CC1 | -12 | -14 | . | . | 1 | 2 | . | .

2 entries from above in another layout.
Compound: COc1ccc(-c2nc(C#N)c(N3CCC(C(N)=O)CC3)o2)cc1OC
  UUG fidelity = -24
  CSC inhib = -3
  PABP FP inh = 2
  Rce1 inh = ?
  MT1-MMP act inh = -1
  MT1-MMP act inh RFP = -9
  HIV Env fusion = -33
  eIF4H inh = 3

Compound: COC(=O)CNC(=O)CSc1nc(N)cc(=O)[nH]1
  UUG fidelity = -20
  CSC inhib = -2
  PABP FP inh = 6
  Rce1 inh = i
  MT1-MMP act inh = 0
  MT1-MMP act inh RFP = 1
  HIV Env fusion = -16
  eIF4H inh = 0

Only part of the results is shown, so the mix of outcomes need not match the whole.
